Source: PubChem BioAssay
TRPML1 ag – human mucolipin-1 channel agonism; TRPML1-expressing cells, Ca2+ dye fluorescence, FDSS; host cell line not named in the record; reference of the full effect not given here; Q9GZU1; actives 0.12% (n = 410,000); activation, % (no concentration beside the values); in the data active = activation above about 50%; inconclusive = about 30% to 50%; inactive = below about 30%; note: 0% is about no effect; the text of the record puts the active cut at 80%
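TRPML1-DL cells, Tet-induced overnight (~16 h, 37 degrees C), loaded 45-90 min at room temperature with Ca8 no-wash calcium dye plus quencher. FDSS fluorescence: 10 s baseline, compound pin-transfer, 110 s agonist read, then EC80 54-4 (4uM final) and 110 s antagonist read.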
D2 ag – agonists of human D2 dopamine receptor (beta-arrestin). actives 0.084% (n = 360,000). DiscoveRx PathHunter D2 beta-arrestin, luminescence, 90 min; 100% = 57 uM dopamine signal. AID 624465. activation, % (concentration not given with the values). P14416; in the data active = activation above about 40%; inconclusive = about 15% to 40%; inactive = below about 15%; note: compound concentration not given in the record; the text of the record calls up to 30% inactive
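Agonist mode: compounds alone added to overnight-plated D2 PathHunter cells for 90 min at 37 C, with 57 uM final dopamine (EC100) defining full response. Beta-arrestin recruitment detected by chemiluminescent reagent, read after 1 h at ambient temperature.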
PINK1 modulator – modulators of PINK1 expression. PINK1 immunofluorescence, high-content cytometry, 24 h. Potency, µM (highest dose often 76.6 µM), inactives show top-dose activation (PINK1 increase), most hits filed as activators. actives 0.2% (n = 410,000). AID 624263; active = well fitted activation curve with a large enough effect; inconclusive = small, poorly fitted or top-dose-only effect; inactive = flat fitted curve, though single readings scatter; cell line not stated here;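 note: potency is the fitted concentration of half-maximal effect; % of control where 0% means no effect; nearly all actives have a fitted effect of over 65% in size; a mitochondrial uncoupler was the plate control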
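Stable cell line treated 24 h with compounds at 5 concentrations (CCCP controls), then fixed and immunostained for PINK1 plus nuclear and cell stains; PINK1 immunofluorescence quantified by laser-scanning microplate cytometry.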
CtBP-E1A inh – blocks the CtBP interaction with E1A; AlphaScreen GST-E1A/His-CtBP binding, 1536-well; active compounds read low; control for the full effect not named in the record; activity change, % (no concentration beside the values); actives 0.49% (n = 340,000); AID 651724; in the data active means activity change below about -65%; inconclusive means about -30% to -65%; inactive means above about -30%; note: % is set by controls: 0 for no effect and ±100 for the full control effect
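AlphaScreen with 125 nM GST-E1A and 125 nM His-CtBP (5X stocks) in Tris pH 8.0, 300 mM NaCl, BSA, Tween 20, TCEP. Compounds preincubated 2 h at 37 deg C, then glutathione donor/nickel acceptor beads added for 1 h at 37 deg C in dark.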
TRPML1 inh – blocks the human TRPML1 channel. activity change, negative = inhibition, % (no concentration beside the values). AID 624415. actives 0.02% (n = 390,000). TRPML1-inducible cells, Ca2+ dye fluorescence, FDSS; active compounds read low; inhibition of EC80 agonist-evoked calcium signal. Q9GZU1; in the data active means activity change below about -50%; inconclusive means about -30% to -50%; inactive means above about -30%;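 note: stimulus is agonist 54-4 at its EC80 concentration; % is set by controls: 0 for no effect and ±100 for the full control effect; compound concentration not given in the record; the text of the record puts the active cut at -80%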
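Calcium fluorescence in TRPML1-DL cells induced overnight with Tet: a 110 s read after compound pin addition, then a 110 s antagonist read after challenge with 54-4 at 4 uM final (EC80).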
Six1-Eya2 inh – inhibitors of human Six1/Eya2 interaction. actives 0.56% (n = 360,000). AlphaScreen GST-Six1/His-Eya2 binding, biochemical; active compounds read low; control for the full effect not named in the record. activity change, % (test concentration not listed). Q15475+O00167; in the data active = activity change below about -65%; inconclusive = about -30% to -65%; inactive = above about -30%; note: % is set by controls: 0 for no effect and ±100 for the full control effect
Target sequence (O00167 whole entry, looked up): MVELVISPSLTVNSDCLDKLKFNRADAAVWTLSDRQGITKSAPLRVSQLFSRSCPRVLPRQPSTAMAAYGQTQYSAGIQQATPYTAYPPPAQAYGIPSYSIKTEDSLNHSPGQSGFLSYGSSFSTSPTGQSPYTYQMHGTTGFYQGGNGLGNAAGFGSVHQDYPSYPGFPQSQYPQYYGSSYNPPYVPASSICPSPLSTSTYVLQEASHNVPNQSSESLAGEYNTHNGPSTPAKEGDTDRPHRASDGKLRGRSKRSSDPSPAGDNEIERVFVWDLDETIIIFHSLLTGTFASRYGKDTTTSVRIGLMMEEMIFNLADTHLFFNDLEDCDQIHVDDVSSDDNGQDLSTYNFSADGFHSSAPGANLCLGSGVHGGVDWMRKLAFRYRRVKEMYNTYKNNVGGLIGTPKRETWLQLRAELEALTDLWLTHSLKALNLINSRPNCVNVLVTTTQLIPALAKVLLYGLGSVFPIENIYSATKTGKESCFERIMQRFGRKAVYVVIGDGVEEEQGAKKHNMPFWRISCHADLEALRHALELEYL
Target sequence (Q15475 whole entry, looked up): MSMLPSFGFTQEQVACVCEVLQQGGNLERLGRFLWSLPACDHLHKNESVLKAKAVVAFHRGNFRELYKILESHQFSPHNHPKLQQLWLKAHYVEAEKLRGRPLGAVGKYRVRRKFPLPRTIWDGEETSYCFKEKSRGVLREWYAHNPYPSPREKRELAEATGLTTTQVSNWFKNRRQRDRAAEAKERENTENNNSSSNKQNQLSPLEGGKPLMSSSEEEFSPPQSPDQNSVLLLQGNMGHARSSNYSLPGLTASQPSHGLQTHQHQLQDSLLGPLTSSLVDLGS
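Homogeneous AlphaScreen proximity assay pairing GST-Six1 with His-tagged Eya2 (added as 5X mix: 250 nM and 500 nM) in 50 mM Tris pH 8.0, 300 mM NaCl, 1 mM TCEP. Glutathione donor and nickel acceptor beads; 1 h, 37 °C, dark.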
Starred values were filed as active, the others as inactive; ? = inconclusive; · = no result given; & = joins results of further samples; [ ] = remark or other dose. Random draw from the library. Share with any hit: about 1%.

Start of the data: the first 4 entries, ahead of the listing:
SMILES | TRPML1 ag | D2 ag | PINK1 modulator | CtBP-E1A inh | TRPML1 inh | Six1-Eya2 inh
CC(=O)Nc1ccc(OCC(O)CN2CCN(c3ccccc3Cl)CC2)cc1 (centres undefined) | 1.4 | 4.4 | -1.7% | -8 | 15 | -18
CCOC(=O)c1ccc2cccc(C)n2c1=O | -0.8 | -1.0 | 0.3% | 6 | 6 | 12
Cc1ccc(F)cc1NC(=O)c1ccc2c(c1)OCO2 | 0.8 | 1.4 | 1.7%[38.3 µM] | 10 | -7 | 4
N#Cc1c(-c2ccccc2Cl)cc(C2CC2)nc1N | 0.9 | -2.3 | 0.7% | 8 | -4 | 2

All compounds of this part, repeating the preview:
SMILES | TRPML1 ag | D2 ag | PINK1 modulator | CtBP-E1A inh | TRPML1 inh | Six1-Eya2 inh
CC(=O)Nc1ccc(OCC(O)CN2CCN(c3ccccc3Cl)CC2)cc1 (centres undefined) | 1.4 | 4.4 | -1.7% | -8 | 15 | -18
CCOC(=O)c1ccc2cccc(C)n2c1=O | -0.8 | -1.0 | 0.3% | 6 | 6 | 12
Cc1ccc(F)cc1NC(=O)c1ccc2c(c1)OCO2 | 0.8 | 1.4 | 1.7%[38.3 µM] | 10 | -7 | 4
N#Cc1c(-c2ccccc2Cl)cc(C2CC2)nc1N | 0.9 | -2.3 | 0.7% | 8 | -4 | 2
CS(=O)(=O)c1ccc2nc(NC(=O)C3CC3)sc2c1 | 0.2 | -0.9 | -0.6% | · | 10 | -5
O=C(O)CCC(=O)Nc1ccccc1N1CCOCC1 | -0.1 | -1.7 | -1.2% | 10 | -13 | 7
CCOC(=O)C1CCN(C(=O)c2cc(C(C)(C)C)nn2Cc2ccccc2)CC1 | 3.3 | -3.9 | -0.5% | 5 | 5 | 5
CCCn1ccc2c(OCC(=O)Nc3ccc(F)cc3F)cccc2c1=O | -0.5 | · | 0.6% | · | 14 | ·
COc1ccccc1NC(=S)NCCc1ccc(Cl)cc1 | -0.3 | -1.8 | -2.3% | -8 | 13 | -2
COc1ccc(-n2nc3c(c2NC(=O)c2cc(Br)ccc2Cl)CS(=O)C3)cc1 (centres undefined) | -0.5 | 2.1 | 0.0% | 2 | -7 | -3
CCCCNC(=O)CCCN1C(=O)c2ccccc2Sc2ncccc21 | 0.2 | · | 0.3% | · | 0 | ·
COc1ccc(N2C(=O)[C@@H]3C(c4cccnc4)=NO[C@@H]3C2=O)cc1 | 0.1 | 5.7 | -0.3% | · | 4 | 2
CC(C)Cc1nnc(NC(=O)CCC(=O)N2CCN(c3ccccc3)CC2)s1 | -0.1 | 3.0 | 1.2% | -19 | -5 | 5
CCOC(=O)Cc1csc(NC(=O)COc2ccc(C)cc2)n1 | 2.5 | -3.7 | 2.2% | · | 15 | -4
Cc1ccnc(NC(=O)CCC(=O)N(CC(=O)NCc2ccccc2)Cc2ccco2)c1 | 0.4 | -3.9 | -0.7% | 4 | -1 | -1
CCCCn1c(-c2csc(CCC)c2)n[nH]c1=S | -0.2 | -12 | 3.3% | -1 | 37 | 5
O=C(COc1ccc(Cl)cc1)NCCN1CCCC1 | 0.1 | -2.9 | 2.7% | 4 | -1 | 5
CCCC(=O)OCC(=O)c1[nH]c(C)c(C(C)=O)c1C | -0.8 | -3.4 | 1.9% | 4 | -5 | 6
CCOC(=O)c1ccc(S(=O)(=O)N2CCC(N3CCCCCC3)CC2)cc1 | -0.8 | -2.9 | -1.1% | 4 | -7 | -2
Cc1ccc(C(=O)N/N=C(/CC(=O)c2cccs2)C(F)(F)F)cc1 | 1.8 | -6.1 | 45µM* | 0 | -5 | -28
COc1ccc(N2CCN(C(=O)c3c(Cl)cnn3C)CC2)cc1 | 0.5 | -3.3 | -3.1% | -2 | 4 | 2
CC(=O)Nc1nc(-c2ccc(Cl)cc2)ns1 | 0.2 | -2.4 | 25% | 0 | -5 | 3
CN(C)C(=O)N1CCC(C(=O)NCc2ccc3c(c2)OCO3)CC1 | 0.4 | -0.5 | -1.0%[38.3 µM] | 5 | -9 | 4
O=C(COC(=O)c1cc([N+](=O)[O-])ccc1N1CCOCC1)Nc1ccccc1OC(F)F | 1.4 | -6.1 | -1.3% | 0 | -4 | 12
CCc1nn(CC(=O)NCCCN(Cc2ccccc2)C(C)C)c(=O)c2cc3sccc3n12 | 1.6 | -0.7 | 1.3%[38.3 µM] | -15 | -15 | -2
CN(C1CCCCC1)S(=O)(=O)c1ccc2c(c1)c(=O)c(C(=O)N1CCN(c3ccccc3)CC1)cn2C | -0.7 | · | 2.8% | · | -2 | ·
O=C(CN1C(=O)c2ccccc2C1=O)NC1CCC(O)CC1 (centres undefined) | -0.5 | -0.9 | -2.9% | -10 | -17 | 5
CN1C(=O)c2cccc3c(S(=O)(=O)Nc4cccc(C(=O)O)c4)ccc1c23 | -0.3 | · | 1.6% | · | -8 | ·
Cc1ccc2cc3cc(C(=O)N(CC(=O)NC4CCCC4)c4cccc(C)c4C)sc3nc2c1 | 0.7 | -4.7 | 2.2%[38.3 µM] | 9 | -21 | 4
C=C1C(=O)[C@]23C[C@H]1CC[C@H]2[C@]1(C)[C@@H](OC(C)=O)CC[C@@](C)(C(=O)O)[C@H]1C[C@@H]3OC(C)=O | -0.2 | -3.7 | 0.7% | 0 | · | 2
CN(C)S(=O)(=O)c1cccc(NC(=O)COC(=O)c2cccnc2Cl)c1 | -0.6 | 2.3 | -1.1% | 1 | -10 | -4
c1cncc(Nc2c3ccccc3nc3ccccc23)c1 | -0.8 | -2.0 | -2.0% | -22 | 10 | -24
O=S(=O)(c1ccc(F)cc1)N1CCN(c2ncccn2)CC1 | · | -2.2 | 0.1% | 1 | · | 4
C/C=C1\NC(=O)[C@H](C)NC(=O)[C@@H](NC(=O)[C@@H](Cc2ccc(O)cc2)NC(=O)[C@@H](NC(=O)/C(C)=C/C)C(C)C)[C@@H](C)OC(=O)[C@H](CCCCc2ccc(O)cc2)NC(=O)[C@@H](CCC(=O)O)NC1=O | -0.2 | 0.8 | 0.4% | 7 | 6 | 4
CC1(C)OC(=O)C(=CNCC(=O)NCC(=O)O)C(=O)O1 | 0.6 | 0.7 | 0.1% | -2 | -1 | 9
O=C(Cc1cccs1)N1CCC(c2nc3c(nnn3Cc3ccccc3)c(=O)[nH]2)CC1 | 0.0 | 0.0 | 0.1%[38.3 µM] | -1 | 9 | -11
CC1(C)S[C@@H]2[C@H](NC(=O)COc3ccccc3)C(=O)N2C1C(=O)OCc1ccccc1 (some centres undefined) | 1.4&0.3 | 0.1 | 1.8% | -25 | -1 | 0
NC(=O)CSc1nnc(-c2cnccn2)n1-c1ccccc1 | 0.2 | -0.4 | -1.9% | 1 | 17 | 1
O=C(Nc1cccs1)Nc1ccccc1Br | 0.4 | -4.2 | 2.6% | · | 7 | -2
CC1=C(C(=O)N(C)C)C(c2ccc(C)s2)NC(=S)N1 (centres undefined) | -0.2 | -4.3 | 1.3% | -7 | 10 | 20
Cc1cc(C(=O)OCC(=O)NCc2ccc(Cl)cc2)c(C)o1 | -0.1 | -1.8 | -0.5% | 2 | -22 | 2
CC(=O)c1cccc(NC(=O)c2c(F)c(F)c(F)c(F)c2F)c1 | -0.7 | -4.8 | 0.0% | -5 | -10 | 5
COc1ccc(C(=O)c2ccc(N3CCOCC3)c([N+](=O)[O-])c2)cc1 | -0.2 | 0.8 | 0.0% | -15 | -21 | -18
Cc1cc(C)cc(CC(=O)N2CCC2(C)C(=O)NS(=O)(=O)c2ccccc2Cl)c1 (centres undefined) | -0.5 | -2.7 | -1.2% | 9 | · | 1
Cc1ccc(-c2nnc(SCc3cccc(C#N)c3)o2)cc1 | -0.7 | · | -0.7% | · | 20 | ·
CCN(CC)S(=O)(=O)c1cccc(NC(=O)c2ccc(Sc3nncn3C)c([N+](=O)[O-])c2)c1 | -0.6 | 0.7 | 2.5% | 0 | 21 | -12
O=C(c1cccs1)N(C(=O)c1cccs1)c1ccc(Br)cn1 | 2.8 | -5.7 | 0.8% | 5 | 9 | -6
Cc1cnc([N+](=O)[O-])n1CCOC(=O)NC(=O)c1ccccc1 | 0.2 | -4.6 | -1.8% | 8 | 11 | 11
Cc1ccc2[nH]cc(C(=O)CN3CCC4(CC3)OCCO4)c2c1 | -0.5 | -5.9 | 2.7% | -3 | 11 | 0
CCCCNC(=O)c1c(C)oc2ncn(CC(C)C)c(=O)c12 | 2.3 | · | -1.5% | · | -14 | ·
O=C(O)C1CCCCN1C(=O)c1ccc(S(=O)(=O)N2CCCCCC2)cc1 (centres undefined) | -0.2 | -2.6 | 2.8% | 6 | -4 | 8
O=C(O)c1cccc(C(=O)O)c1 | · | -3.2 | 0.5% | 10 | · | 2
COc1ccc([N+](=O)[O-])cc1NC1C2CC3CC(C2)CC1C3 (centres undefined) | -0.9 | -2.7 | 0.5% | 17 | -3 | 8
Cn1c2ccccc2c(=O)c2cc(C#Cc3ccsc3)ccc21 | -0.2 | -1.9 | 1.0% | · | 10 | 3
CC1(C(=O)Nc2ccc3c(c2)OCO3)CCN1C(=O)CCc1cccs1 (centres undefined) | 0.2 | -3.5 | -0.5% | 2 | -11 | -6
O=C1CC(NNc2nc3ccccc3s2)C(=O)N1c1ccc(F)cc1 (centres undefined) | 0.3 | -2.2 | 5.7% | 0 | 5 | 18
Cc1cc(=O)n(Cc2ccco2)c(=S)[nH]1 | -0.3 | -7.9 | 2.7% | 5 | 13 | -2
Cn1c2ccccc2c2cc([N+](=O)[O-])ccc21 | 0.0 | -4.5 | -1.3% | 1 | 7 | -4
O=C(NCc1cc(C(F)(F)F)cc(C(F)(F)F)c1)C1CC(c2cccc(F)c2)=NO1 (centres undefined) | 0.2 | -10 | 9.7% | 0 | 4 | 33
O=C(O)c1ccc(S(=O)(=O)N2CCC(n3nnc4cc(C(F)(F)F)ccc43)CC2)cc1 | -0.5 | -3.8 | 5.4% | 18 | -12 | -1

(listing goes on)
SMILES | TRPML1 ag | D2 ag | PINK1 modulator | CtBP-E1A inh | TRPML1 inh | Six1-Eya2 inh
CCN1CCN(CCCNC(=O)c2ccc(/C=C3/Oc4ccccc4N(Cc4cccc(C)c4)C3=O)cc2)CC1 | -0.1 | 2.0 | 2.1% | · | -3 | 12
COc1ccc(C(=O)n2cnnc2N)cc1 | -0.2 | -1.8 | -1.6% | 4 | -1 | 3
COc1ccc(/C=C/C(=O)Nc2ccc(NC(C)=O)cc2)cc1S(=O)(=O)N1CCOCC1 | · | 5.9 | 8.0% | ? | · | -3
CS(=O)(=O)c1ccc2nnn(OCC(=O)Nc3ccc(Br)cc3Br)c2c1 | -1.2 | -5.5 | 7.3% | -8 | -8 | 1
CCc1nnc(NC(=O)CSc2nc(C)cc(C)c2C#N)s1 | 0.2 | 10 | 5.4% | -12 | -9 | -7
Cc1ccc(NC(=O)CN2CCN(S(=O)(=O)c3cccs3)CC2)cc1S(=O)(=O)N(C)C | -0.5 | -1.4 | 1.1% | 3 | 61 | 28
